aGal spleen mod – qHTS Assay for Inhibitors and Activators of Human alpha-Galactosidase From Spleen Homogenate; human spleen homogenate, 4MU-alpha-Gal fluorescence, 40 min; Alpha-galactosidase A (Homo sapiens), P06280; AID 2107, 2009; Potency, µM (highest dose often 80 µM), without a hit: top-dose activity change, negative = inhibition, most hits filed as inhibitors; 240,000 tested, 0.008% active;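 note: 0% = enzyme with vehicle and -100% = no enzyme basal signal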
Target sequence (P06280 32-429 limits assumed): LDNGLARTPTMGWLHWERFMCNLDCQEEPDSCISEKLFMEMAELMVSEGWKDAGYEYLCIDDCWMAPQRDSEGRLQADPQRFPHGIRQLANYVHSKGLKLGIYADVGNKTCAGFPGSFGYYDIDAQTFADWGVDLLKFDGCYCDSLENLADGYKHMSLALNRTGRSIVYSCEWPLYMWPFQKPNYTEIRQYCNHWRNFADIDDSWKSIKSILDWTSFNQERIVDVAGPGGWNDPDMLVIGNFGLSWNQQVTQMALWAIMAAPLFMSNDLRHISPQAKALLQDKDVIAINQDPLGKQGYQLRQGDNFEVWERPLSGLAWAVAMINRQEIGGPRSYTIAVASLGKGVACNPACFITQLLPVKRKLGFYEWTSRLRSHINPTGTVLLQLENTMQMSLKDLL
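Inhibition or activation of alpha-galactosidase in human spleen homogenate is scored by 4-MU fluorescence after 40 min at 37C, pH 5.0, with 1 mM substrate. AC50s come from concentration-response fitted to the Hill equation.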
Tau fluor cs – Counterscreen qHTS for Inhibitors of Tau Fibril Formation, Fluorescence Polarization; 280,000 tested, 0.93% active; Potency, µM (titrated, usually from 57.7 µM), for the others: at the top dose activity change, negative = decrease; AID 1463, 2008; tau K18 P301L Alexa594 fluorescence, heparin fibrillization; note: % is set by controls: 0 for no effect and ±100 for the full control effect; nearly all actives have a fitted effect of over 55% in size
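Human tau K18 P301L (15 uM unlabeled, 0.24 uM Alexa 594-labeled) in 100 mM sodium acetate pH 7 with 20 uM heparin, 6 hr at 37 C. ThT 30 uM added, 1 hr ambient; Alexa 594 FP and total fluorescence read at 555/632 nm.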
GAA spleen mod – qHTS Assay for Inhibitors and Activators of Human alpha-Glucosidase From Spleen Homogenate; Lysosomal alpha-glucosidase (Homo sapiens), P10253; 240,000 tested, 0.006% active; human spleen homogenate, 4-MU-alpha-glucoside fluorescence; Potency, µM (highest dose often 79.9 µM), without a hit: at the top dose activity change, negative = inhibition, usual class: inhibitors;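 note: 0% = enzyme with vehicle and -100% = no enzyme basal signal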
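Human spleen homogenate (1 ug) with 4-methylumbelliferyl-alpha-D-glucopyranoside (1 mM final) in 50 mM citrate/phosphate pH 5.0, 0.01% Tween-20; 40 min at 37 C. Stopped at pH 10; 4-MU fluorescence Ex 365/Em 440 nm; AC50 by Hill fit.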
GAA glycogen mod – qHTS Assay for Inhibitors and Activators of Human alpha-Glucosidase Cleavage of Glycogen | Lysosomal alpha-glucosidase (Homo sapiens), P10253 | recombinant GAA, glycogen substrate, Amplex Red glucose oxidase fluorescence | Potency, µM (series often up to 76.4 µM), for inactives: at the highest dose activity change, negative = inhibition, actives largely listed as inhibitors | 300,000 tested, 0.38% active;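 note: 0% = full enzyme reaction and -100% = no-enzyme basal signal; the screen sought inhibitors and activators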
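qHTS, 1536-well; enzyme 4 nM final; cpd up to 77 uM; substrate bovine liver glycogen 30 ug; 50 mM citrate/phosphate pH 5.0, 0.01% Tween-20; 37 C, 40 min; Amplex Red detection 45 min RT; Hill fit → AC50.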
Epigenetic derep – Quantitative High-Throughput Screen for Regulators of Epigenetic Control | murine LDR cells, GFP reporter derepression, 30 h | Potency, µM (highest dose often 53.9 µM), inactives show at the highest dose GFP activation, hits mostly activators | 280,000 tested, 0.2% active | AID 1865, 2009; note: % of control where 0% means no effect; nearly all actives have a fitted effect of over 60% in size
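Murine LDR cells bearing a silenced CMV-driven GFP reporter were exposed to compound for 30 h at 37 C. After PBS washes, GFP-positive cells (20-120 um objects) counted by laser-scanning microplate cytometry.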
GAA inh – qHTS Assay for Inhibitors of Human alpha-Glucosidase as a Potential Chaperone Treatment of Pompe Disease; purified human GAA, 4-MU-alpha-glucoside fluorescence; Potency, µM (doses to about 76.9 µM), inactives show at the top dose activity change, negative = inhibition, usual class: inhibitors; 200,000 tested, 0.005% active; AID 1466, 2008;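 note: plate controls were uninhibited enzyme wells for no effect and no-enzyme background for full effect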
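Fluorescence at Ex 365/Em 440 nm from 4-methylumbelliferone reported enzyme activity after 20 min at room temperature. Reactions used 4 nM enzyme and 400 uM substrate at pH 5.0; curves fitted with the Hill equation.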
Numbers without * were called inactive; ? = inconclusive; . = no result given; & = joins results of further samples; [ ] = another dose, or the depositor's remark. Calls come from the whole dose curve; as a rule, active = well fitted curve in the direction sought with a large enough effect; inconclusive = small, poorly fitted or top-dose-only effect, or another doubt; inactive = no such curve, though single readings can be large; an effect the other way counts as inactive or inconclusive. Potency is the fitted concentration of half-maximal effect. Only part of the results is shown; count on the stated rates, not on these rows.

SMILES	aGal spleen mod	Tau fluor cs	GAA spleen mod	GAA glycogen mod	Epigenetic derep	GAA inh
Cc1ccccc1NC1=NCCCS1	3%	-1%	1%	4%	0.9%	0%
C[N+]1(C)C2CC(OC(=O)C(CO)c3ccccc3)CC1C1OC12 (centres undefined)	6%&-4%&-5%	-6%&-3%&-4%	0%&-3%&-6%	.	-2.3%&-1.2%&-1.3%	.
COc1cc2c(cc1OC)C(C(=O)N1CCC3(CC1)OCCO3)C(c1ccccc1F)N(C)C2=O (centres undefined)	-1%	2%	-10%	-5%	-1.0%	0%
CN1CCN(c2ccc(C(F)(F)F)cc2N)CC1	3%	-1%	4%	1%	1.3%	-1%
COc1ccc(/C=C2/C(=O)NC(=O)N(C3CCCCC3)C2=O)cc1CSc1ccccn1	9%	-17%	3%	0%	0.2%	-4%
Cc1ccc(-c2nn(Cc3ccccc3)cc2C=O)cc1	-9%	-6%	-4%	12%	-2.1%	4%
CCOP(=O)(OCC)c1cccc(O)c1	1%	-4%	-2%	2%	-1.3%	0%
COCCCn1c(N)c(C(=O)Nc2sc3c(c2C(=O)OC)CCCC3)c2nc3ccccc3nc21	6%	?	-4%	1%	1.1%	-9%
C=C[C@H]1CN2CC[C@@H]1C[C@H]2[C@@H](O)c1ccnc2ccccc12	11%&15%[29.1 µM]	.	-2%&1%[29.1 µM]	.	-1.4%&0.0%[16.9 µM]	.
Nc1c(C(=O)OCc2ccccc2)c2nc3ccccc3nc2n1Cc1cccs1	?	?	6%	-5%	2.8%	?
CCCc1[nH]nc2c1C1(C(=O)N(Cc3ccccc3)c3ccccc31)C(C(=O)OC)=C(N)O2 (centres undefined)	-3%	-19%	-18%	-17%	0.0%	-15%
CCn1ccnc1CN1CCCC(C(=O)c2cc(F)ccc2OC)C1 (centres undefined)	-1%	-6%	-4%	?	4µM*	-2%[15.4 µM]
CC1(C)C(=O)[C@@H]2OC2[C@@]2(C)C1CC(O)[C@]1(C)C2CC[C@@]2(C)C(c3ccoc3)OC(=O)C3OC312 (some centres undefined)	5%	-15%	-5%	.	0.3%	.
CCn1c(O)c(C=Nc2ccc(N3CCOCC3)c(Br)c2)c(=O)n(CC)c1=S	2%	-20%	1%	-7%	1.1%	-3%
CC1=C(O)C(=O)[C@H]2O[C@@H]2C1=O	2%	?	2%	.	?	.
O=C(COC(=O)c1ccccc1)Nc1ccc(Cl)cc1C(=O)c1ccccc1	-1%	-12%	-11%	6%	2.2%	1%
Cn1c(=O)c2c(nc(SCc3ccccc3)n2Cc2ccc(Cl)cc2)n(C)c1=O	4%	-10%	-2%	3%	3.0%	-6%
CC1(C(=O)O)C2CCC(O2)C1(C)C(=O)O (centres undefined)	6%	-7%	-2%	.	?	.
C[C@]12CC[C@H]3[C@@H](CCC4=CC(=O)CC[C@@]43C)[C@@H]1CC[C@@H]2O	2%	.	8%	.	.	.
C[C@@]12CCC3C(CCC4=CC(=O)CC[C@]43C)C1CCC2O (some centres undefined)	9%	-9%	-3%	.	4.0%	.
COc1cccc(C2(O)CCSCC2CN(C)C)c1 (centres undefined)	0%	12%	1%	-8%	-1.7%	6%
Cc1ccc2c(c1)[C@@H]1CN(C)CC[C@@H]1N2C(=O)Nc1cccc(C(F)(F)F)c1	-1%	-28%	-1%	6%	-3.3%	-10%
Cc1ccc(-n2nc(C)cc2NC(=O)COc2cc(C)cc3oc(=O)c4c(c23)CCC4)cc1	5%	-14%	0%	-7%	-1.2%	-2%
Cc1c(C(=O)c2cccc3ccccc23)c2cccc3c2n1[C@@H](CN1CCOCC1)CO3	1%	?	-3%	.	-4.6%	.
COc1ccc(CCN)cc1	-11%	1%	1%	.	1.1%	.

Looked up one by one from above (two):
SMILES	aGal spleen mod	Tau fluor cs	GAA spleen mod	GAA glycogen mod	Epigenetic derep	GAA inh
CN1CCN(c2ccc(C(F)(F)F)cc2N)CC1	3%	-1%	4%	1%	1.3%	-1%
Nc1c(C(=O)OCc2ccccc2)c2nc3ccccc3nc2n1Cc1cccs1	?	?	6%	-5%	2.8%	?

Given in markdown: part of the list above.
| compound | aGal spleen mod | Tau fluor cs | GAA spleen mod | GAA glycogen mod | Epigenetic derep | GAA inh |
| --- | --- | --- | --- | --- | --- | --- |
| C=C[C@H]1CN2CC[C@@H]1C[C@H]2[C@@H](O)c1ccnc2ccccc12 | 11%&15%[29.1 µM] | . | -2%&1%[29.1 µM] | . | -1.4%&0.0%[16.9 µM] | . |
| Nc1c(C(=O)OCc2ccccc2)c2nc3ccccc3nc2n1Cc1cccs1 | ? | ? | 6% | -5% | 2.8% | ? |
| CCCc1[nH]nc2c1C1(C(=O)N(Cc3ccccc3)c3ccccc31)C(C(=O)OC)=C(N)O2 (centres undefined) | -3% | -19% | -18% | -17% | 0.0% | -15% |
| CCn1ccnc1CN1CCCC(C(=O)c2cc(F)ccc2OC)C1 (centres undefined) | -1% | -6% | -4% | ? | 4µM* | -2%[15.4 µM] |
| CC1(C)C(=O)[C@@H]2OC2[C@@]2(C)C1CC(O)[C@]1(C)C2CC[C@@]2(C)C(c3ccoc3)OC(=O)C3OC312 (some centres undefined) | 5% | -15% | -5% | . | 0.3% | . |
| CCn1c(O)c(C=Nc2ccc(N3CCOCC3)c(Br)c2)c(=O)n(CC)c1=S | 2% | -20% | 1% | -7% | 1.1% | -3% |
| CC1=C(O)C(=O)[C@H]2O[C@@H]2C1=O | 2% | ? | 2% | . | ? | . |
| O=C(COC(=O)c1ccccc1)Nc1ccc(Cl)cc1C(=O)c1ccccc1 | -1% | -12% | -11% | 6% | 2.2% | 1% |
| Cn1c(=O)c2c(nc(SCc3ccccc3)n2Cc2ccc(Cl)cc2)n(C)c1=O | 4% | -10% | -2% | 3% | 3.0% | -6% |
| CC1(C(=O)O)C2CCC(O2)C1(C)C(=O)O (centres undefined) | 6% | -7% | -2% | . | ? | . |
| C[C@]12CC[C@H]3[C@@H](CCC4=CC(=O)CC[C@@]43C)[C@@H]1CC[C@@H]2O | 2% | . | 8% | . | . | . |
| C[C@@]12CCC3C(CCC4=CC(=O)CC[C@]43C)C1CCC2O (some centres undefined) | 9% | -9% | -3% | . | 4.0% | . |
| COc1cccc(C2(O)CCSCC2CN(C)C)c1 (centres undefined) | 0% | 12% | 1% | -8% | -1.7% | 6% |
| Cc1ccc2c(c1)[C@@H]1CN(C)CC[C@@H]1N2C(=O)Nc1cccc(C(F)(F)F)c1 | -1% | -28% | -1% | 6% | -3.3% | -10% |
| Cc1ccc(-n2nc(C)cc2NC(=O)COc2cc(C)cc3oc(=O)c4c(c23)CCC4)cc1 | 5% | -14% | 0% | -7% | -1.2% | -2% |

Screening data: PubChem, National Center for Advancing Translational Sciences (NCATS)
